Rango release inh: inhibition of RanGTP-driven Rango-importin beta dissociation. actives 0.071% (n = 340,000). Biochemical FRET Rango-importin beta, RanGTP-induced dissociation. AID 540253. O95149+P62826. Potency, µM (doses to about 46.1 µM), for the others: at the highest dose activity change, negative = inhibition; active means falling FRET ratio curve, often poorly fitted, with flat reads before Ran was added; inconclusive means other falling curves, or compound fluorescence or quenching; inactive means flat or rising ratio curve;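 note: potency is the fitted concentration of half-maximal effect; % of control where 0% means no effect; nearly all actives have a fitted effect of over 45% in size; -100% = wells without RanGTP and RCC1; the record marks most hits as doubtful in a second field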
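FRET read at 45 min, room temperature: inhibitors block the CFP/YFP signal rise when RanGTP (0.6 uM Ran, 2 mM GTP, 0.2 uM RCC1) frees Rango (0.1 uM) from importin beta (0.25 uM). Pre-read after 5 min compound exposure flags interference.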
GLA inh pH 4.5: blocks human alpha-galactosidase A at pH 4.5 | 230,000 tested, under 10 active | activity change, negative = inhibition, % at 105 µM | AID 1467 | purified enzyme, 4-MU-alpha-Gal fluorescence, pH 4.5; inconclusive = small, poorly fitted or top-dose-only inhibition, or a rising curve; inactive = flat fitted curve, though single readings scatter; no compound was filed as active;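 note: 0% = full activity with enzyme and -100% = basal without enzyme; dose as in the result columns while the protocol names 77 µM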
Rango complex inh: Rango-importin beta binding inhibition; Rango CFP/YFP FRET sensor + importin beta, 45 min; actives 0.031% (n = 340,000); Potency, µM (titrated, usually from 92.2 µM), for the others: at the highest dose inhibition of complex formation; AID 540263; Q14974; active = rising FRET ratio curve, often small or poorly fitted; inconclusive = mostly compound fluorescence or quenching in the first reads; inactive = flat curves in all reads;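 note: potency is the fitted concentration of half-maximal effect; 0% = DMSO wells and 100% = buffer wells lacking importin beta; nearly all actives have a fitted effect of over 15% in size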
Target sequence (Q14974 whole entry, looked up): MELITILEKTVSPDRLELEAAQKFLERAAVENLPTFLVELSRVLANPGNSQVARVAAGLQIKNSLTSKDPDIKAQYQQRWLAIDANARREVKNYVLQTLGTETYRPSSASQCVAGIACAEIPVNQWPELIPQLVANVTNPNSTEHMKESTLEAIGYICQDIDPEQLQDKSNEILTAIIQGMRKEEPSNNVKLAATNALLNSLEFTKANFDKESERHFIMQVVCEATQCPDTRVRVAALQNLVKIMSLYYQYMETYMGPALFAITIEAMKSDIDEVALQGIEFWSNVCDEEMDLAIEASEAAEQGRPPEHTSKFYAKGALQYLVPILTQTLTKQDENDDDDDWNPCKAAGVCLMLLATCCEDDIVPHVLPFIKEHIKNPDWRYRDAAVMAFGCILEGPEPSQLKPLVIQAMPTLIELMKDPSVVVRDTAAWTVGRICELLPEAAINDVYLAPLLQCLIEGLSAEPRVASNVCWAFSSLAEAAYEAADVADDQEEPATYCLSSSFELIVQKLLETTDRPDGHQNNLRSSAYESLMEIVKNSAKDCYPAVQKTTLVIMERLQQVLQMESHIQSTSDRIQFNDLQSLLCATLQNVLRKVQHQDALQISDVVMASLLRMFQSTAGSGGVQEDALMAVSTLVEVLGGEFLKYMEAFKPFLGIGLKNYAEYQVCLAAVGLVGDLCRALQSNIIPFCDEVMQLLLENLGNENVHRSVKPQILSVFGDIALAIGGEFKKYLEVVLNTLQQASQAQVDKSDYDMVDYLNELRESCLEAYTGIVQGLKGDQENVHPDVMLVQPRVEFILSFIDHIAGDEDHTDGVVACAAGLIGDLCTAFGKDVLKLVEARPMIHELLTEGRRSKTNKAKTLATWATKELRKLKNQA
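FRET biosensor (snurportin 1 IBB flanked by EYFP and cerulean), 50 nM, with compound 5 min, then 0.125 microM importin beta in PBS, 1 mM DTT, 0.02% Tween-20, 0.1% BSA. CFP/YFP ratio read after 45 min at room temperature; pre-read flags interference.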
miR-21 reporter: raises the signal of a miR-21 reporter | HeLa miR-21 FLuc reporter, luciferase, 48 h | Potency, µM (series often up to 38.3 µM), for inactives: at the top dose reporter change, positive = more light | 340,000 tested, under 10 active | AID 2288; active = well fitted rising curve with a large enough effect; inconclusive = small, poorly fitted or top-dose-only effect; inactive = no such curve, though single readings can be large or run the other way;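 note: % of control where 0% means no effect; miR-21 action dims this reporter so a rising signal means less miR-21 action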
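HeLa miR-21-FLuc reporter line, endogenous miR-21; 2000 cells/well in DMEM/10% FBS; compound titration up to ~40uM final, 48 h, 37 degree Celsius; luciferase detection reagent, 15 min lysis, CCD luminescence.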
Starred values were filed as active, the others as inactive; u = inconclusive; x = no result given; & = joins results of further samples. This is a subset (hit frequency here may not be typical).

Compound | GLA inh pH 4.5 | Rango release inh | Rango complex inh | miR-21 reporter
O=C(c1cccc(F)c1)N1CCN(C(=O)C2CC2)CC1 | -1 | -1% | -0.7% | 0%
Cc1ccc(NC(=O)C2C3C=CC4(O3)C2C(=O)N(CCCN2CCCCC2)C4C(=O)NC2CCCCC2)cc1C (configuration not stated) | x | -23% | 1.6% | 1%
O=C(c1ccco1)N1CCN(C(=O)c2oc(=O)c3ccccc3c2-c2ccccc2)CC1 | 1 | 20% | 1.2% | -10%
CCN1CCN(CCCNC(=O)Cn2cc3c(n2)CCCC3)CC1 | 0 | 17% | -1.7% | 3%
COc1ccc(C=O)cc1OC(=O)C1(C)Cc2ccccc2C(=O)O1 (configuration not stated) | 4 | 0% | 3.8% | -2%
CCC(CO)NC(=O)c1ccccc1C(F)(F)F (configuration not stated) | -14 | -14% | 3.9% | 2%
O=C(Nc1nc2c(s1)C(=O)CCC2)c1ccccc1 | -10 | 2% | 0.9% | 4%
O=C1C2C3C=CC(C4CC34)C2C(=O)N1/N=C/c1ccc(-c2cccc([N+](=O)[O-])c2)o1 (configuration not stated) | -13 | -4% | 2.1% | 7%
Cc1ccc(NC(=O)C2CC(=O)n3ncnc3N2)cc1C (configuration not stated) | 5 | 0% | -4.0% | -2%
CC1=C(C)SC(=C(C#N)c2nnc(N3CCOCC3)n2-c2ccccc2)S1 | -1 | -4% | -0.6% | -3%
CCCC1=C(C(=O)OCC)C(c2cc(Cl)cc(OC)c2OCc2ccccc2)NC(=O)N1 (configuration not stated) | -3 | 32% | 2.6% | 0%
CC1CCN(S(=O)(=O)c2ccc3c(c2)N(CC(=O)NCCCN2CCCC(C)C2)C(=O)CS3)CC1 (configuration not stated) | x | -7% | 0.1% | 0%&-4%
Cc1ccc2c(C)c(C(=O)NCC(C)(C)N3CCOCC3)oc2c1C | x | -4% | -2.8% | -6%
CCOc1cccc(C(=O)Nc2cccnc2)c1 | 8 | 16% | -1.2% | -15%
Cc1ccc(SCC(=O)OCC(=O)N(CCC#N)c2ccccc2)cc1 | x | -6% | 6.4% | x
COCCn1c(SCC(=O)N2CCCCCC2)nc2c([nH]c3ccccc32)c1=O | x | -14% | -2.5% | -1%
COc1ccc(-c2oc(=O)c3cc(OC)c(OC)cc3c2C#CCCCO)cc1 | x | u | u | x
COc1ccc(/C=N/n2cnnc2SCc2ccc(OC)cc2)cc1 | -15 | 5% | 0.8% | -14%
Cc1ccc(OCCNC(=O)c2ccccc2OCc2c(C)noc2C)cc1 | x | 8% | 3.5% | x
O=CNC1CCCc2c1[nH]c1ccc(Cl)cc21 (configuration not stated) | 2 | -14% | u | 2%
NS(=O)(=O)c1ccc(NC(=O)CSc2cn[nH]n2)cc1 | x | 3% | -0.9% | 0%
Cc1ccccc1CS(=O)(=O)c1ccc(C(=O)N2CCC(C)CC2)cc1[N+](=O)[O-] | -17 | 0% | 0.2% | 8%
CCCC(C(=O)NC(C)(C)C)N(CC1CCCO1)C(=O)CNS(=O)(=O)c1ccc(F)cc1 (configuration not stated) | x | 4% | -1.5% | -1%
CCc1cc(=O)oc2cc(OCC(=O)NCCCN3CCOCC3)c(Cl)cc12 | x | 28% | -4.0% | 2%
CCN1CCN(C(c2cccs2)C(C)NS(=O)(=O)c2ccc(Br)cc2)CC1 (configuration not stated) | 5 | 4% | 1.5% | -6%
COc1ccc(C(=O)N2CCN(CCNC(=O)C(=O)Nc3ccc(F)cc3)CC2)cc1 | x | -7% | -4.0% | -6%
CC(SCc1ccccc1)C(=O)Nc1ccccc1 (configuration not stated) | x | -11% | 6.8% | -10%
COCCOC(=O)C1=C(C)NC2=C(C(=O)CCC2)C1c1ccc2c(c1)OCO2 (configuration not stated) | -1 | -2% | 1.8% | -8%
O=C(Nc1cccc(-c2nc3ncccc3o2)c1)c1ccccc1 | 6 | 10% | 2.6% | -3%
CCCCNC(=S)NCc1ccc2[nH]c3c(c2c1)CCCC3 | -5 | -23% | -3.2% | 16%
O=C(COC(=O)c1cc(C(F)(F)F)cc(C(F)(F)F)c1)NCc1ccc(Cl)cc1 | -3 | -6% | -1.9% | 0%
COc1cccc(CNc2nc(-c3cccnc3)nc3ccccc23)c1 | -6 | -1% | 2.4% | 9%
CCCCn1c(SCC(=O)NCc2ccc(OC)c(C(=O)O)c2)nc2cc(S(N)(=O)=O)ccc21 | x | -18% | -0.8% | -1%
Cc1cccc(NC(=O)c2sc3nc(-c4ccccc4)cn3c2C)n1 | -4 | u | u | 15%
C/C(=N/NC(=O)c1ccc2c(c1)OCCO2)c1ccc([N+](=O)[O-])cc1 | -4 | 18% | 0.1% | -10%
CC(=O)Nc1ccc(S(=O)(=O)N(C)CC(=O)OC(C)C(=O)NC2CCCCC2)cc1 (configuration not stated) | x | -8% | 0.3% | x
CC(=O)N1CCCc2cc(S(=O)(=O)NC(C(=O)NC3CCCCC3)C(C)C)ccc21 (configuration not stated) | 4 | -3% | 7.1% | 0%
O=C(O)Cc1ccc(NC(=O)c2ccc3c(c2)C(=O)N(Cc2ccco2)C3=O)cc1 | x | -8% | -0.1% | 3%
CCc1cc(C(=O)O)c(NC(=O)/C=C/c2ccc(OC)cc2)s1 | -8 | -11% | -1.0% | -54%
CCOC(=O)C1=C2c3cc(OC)c(OC)cc3CC(C)(C)N2C(=O)C1=O | -4 | -8% | -2.5% | -16%
CCN1C[C@@H]2[C@@H]3C(=O)N(Cc4ccccc4)C(=O)[C@@H]3[C@](Cc3ccccc3)(C1=O)N2C(=O)c1ccc(C(F)(F)F)cc1 | x | -2% | 0.9% | x
CN(CC(=O)N1CCN(C2CCCCC2)CC1)S(=O)(=O)c1cccc2nsnc12 | -5 | 33% | -0.3% | -2%
CN(CCOc1ccc(Cl)cc1)C(=O)c1cc(S(=O)(=O)N2CCOCC2)ccc1N1CCCC1 | x | -3% | 0.1% | x
CCN(C(=O)COC(=O)CCCc1c[nH]c2ccccc12)c1c(N)n(Cc2ccccc2)c(=O)[nH]c1=O | x | 0% | 1.2% | x
COCC(C)n1c(SCC(=O)NC(=O)NC2CCCC2)nc2ccccc2c1=O (configuration not stated) | x | 9% | 0.2% | x
CC(C)CCNC(=O)c1cc(-c2ccncc2)nc2ccc(S(=O)(=O)N3CCOCC3)cc12 | 8 | 2% | -3.5% | 0%
CCCS(=O)(=O)N1CCN(C(=O)COc2ccc(OC)cc2)CC1 | 5 | -6% | 5.7% | -3%
CCCCNc1c(-c2ccc(OC)c(SC(C)CC)c2)nc2ccc(C)cn12 (configuration not stated) | x | u | u | x
CCOc1ccc2[nH]c3c(N4CCN(C(=O)c5ccco5)CC4)ncnc3c2c1 | -3 | -18% | -1.9% | 5%
Cc1ccc(C(=O)N(CC(=O)NC2CCCCC2)c2ccccc2C)s1 | -4 | 6% | 2.2% | 4%
COCCCNCCOCCOc1ccc(Cl)cc1C(C)(C)C | -9 | 5% | -0.6% | 18%
COCCNC(=O)COC(=O)c1ccc(OCC(=O)Nc2ccccc2OC)c(OC)c1 | -3 | 6% | -0.1% | 1%
C/C(=N\O)c1ccc2c(c1)OCCO2 | -19 | 4% | 0.6% | -11%
CC(C)c1ccc(OC(=O)NCCO)cc1 | -4 | -2% | -2.3% | -23%
N#Cc1ccc(CN2CCN(C(=O)c3ccc(S(=O)(=O)NCc4ccco4)cc3)CC2)cc1 | x | 8% | 3.7% | x
O=C1c2ccccc2C(=O)N1c1ccc(Cl)cn1 | -7 | 1% | 0.6% | -8%
CC(=O)NC1C(=O)N=C(SCC(=O)Nc2ccc(C(F)(F)F)cc2Cl)NC1=O (configuration not stated) | 3 | -26% | -1.5% | 9%
CC(C)c1ccccc1NS(=O)(=O)N(C)C | 8 | -2% | -0.8% | 4%
Cc1cccc(NC(=O)CN(C)C(=O)C2CC2)c1C | x | 2% | -1.2% | x
CN(Cc1ccccc1)c1nc(N)nc(Cl)c1C=O | 1 | 14% | 1.8% | 12%

(listing goes on)
Compound | GLA inh pH 4.5 | Rango release inh | Rango complex inh | miR-21 reporter
O=C(CN(c1ccc(Cl)c(Cl)c1)S(=O)(=O)c1ccccc1)N1CCc2ccccc2C1 | 11 | -5% | u | 5%
COc1ccc(CN(C(=O)c2cc3ccccc3oc2=O)C2CCS(=O)(=O)C2)cc1 (configuration not stated) | -2 | 0% | 0.2% | -18%&-26%
CCCn1c(N)c(C(=O)COC(=O)CCNS(=O)(=O)c2ccccc2F)c(=O)[nH]c1=O | x | -1% | -2.4% | x
CC1CCC2(CC1)NC(=O)N(CC(=O)Nc1cccc(C#N)c1)C2=O (configuration not stated) | x | -13% | -1.3% | x
Cc1cc(=O)oc(C)c1C(=O)OCC(=O)c1ccc(Cl)c(Cl)c1 | 5 | 1% | 2.3% | -9%
Nc1nnc(C(F)(F)F)s1 | -3 | -5% | -0.2% | 1%
O=C(OC(C(=O)NCc1ccccc1)c1ccccc1)c1ccco1 (configuration not stated) | x | -8% | 2.5% | -7%
CCOC(=O)c1c(-c2ccccc2)cn2c(C)cc(C)nc12 | 16 | -11% | -1.4% | -65%
COc1ccc(OCc2n[nH]c(=S)n2-c2ccc(C)cc2)cc1 | 4 | -13% | -2.8% | -3%
C=CCn1c(SCC(=O)Nc2sccc2C(N)=O)nc2sc(C)c(C)c2c1=O | -2 | -8% | -2.2% | -17%
CC(NC(=O)C1CCC(C(C)(C)C)CC1)C(c1ccccc1)N1CCOCC1 (configuration not stated) | -7 | -8% | u | -9%
CC(C)(C#N)c1cc(Cn2cncn2)cc(C(C)(C)C#N)c1 | 7 | x | x | -1%
O=C(O)C1CCCCC1C(=O)NCCCN1CCCC1=O (configuration not stated) | x | -1% | -1.1% | 9%
Cc1nc2ccc(NC(=O)c3ccc([N+](=O)[O-])cc3)cc2s1 | -3 | 13% | 5.4% | -20%
COc1ccc(NC2CCCN(C(=O)c3ccc(C)nc3)C2)cc1 (configuration not stated) | x | -6% | -0.8% | 0%
O=C1C2C(c3cccc(/C=C/c4ccccc4)c3)CC=CC2C(c2ccc(C(F)(F)F)cc2)N1Cc1ccccc1 (configuration not stated) | 3 | 27% | 3.7% | 4%
CCOc1nc(SCCOc2ccc(Cl)cc2Cl)nc(N(C)C)n1 | -4 | 3% | 4.9% | -15%
CCC(C)(C)n1nnnc1C(C(C)C)N1CCN(C(=O)c2ccco2)CC1 (configuration not stated) | x | 6% | -4.2% | -5%
C=CCOc1ccc(CN(C)C(=O)C2CCCO2)cc1 (configuration not stated) | x | 34% | 0.0% | -15%
Cc1cccc(NC(=O)Cn2nc(-c3ccco3)ccc2=O)c1C | x | 4% | 0.5% | -3%
CCOc1cc(C(=O)N/N=C(\C)Cc2ccc(OC)cc2)cc(OCC)c1OCC | 8 | 10% | -4.4% | 20%
CC1(C)S[C@@H]2[C@H](NC(=O)[C@H](N)c3ccccc3)C(=O)N2[C@H]1C(=O)OC1OC(=O)c2ccccc21 (some centres not stated) | x | 1% | 0.0% | x
CN1CCS/C1=C/C=C1\SC(=S)N(CC(=O)O)C1=O | -8 | u | 58µM* | 0%
Cc1ccc(S(=O)(=O)N2CCCCC2)cc1C(=O)NCc1ccncc1 | x | -5% | -1.5% | -4%
Nc1ccc(S(=O)(=O)NNC(=O)C(=O)NNc2ccccn2)cc1 | 5 | -2% | 4.7% | -2%
COc1cc(/C=C2\SC(=S)N(CC(=O)Nc3cccnc3)C2=O)cc(OC)c1OC | 3 | -3% | u | 2%
CC(=O)c1c(C)[nH]c(C(=O)OCC(=O)NCCc2ccc(Cl)cc2)c1C | -3 | 1% | -0.9% | 15%

Compounds from the list above that have a nitro group on carbon, in the order listed:
Compound | GLA inh pH 4.5 | Rango release inh | Rango complex inh | miR-21 reporter
O=C1C2C3C=CC(C4CC34)C2C(=O)N1/N=C/c1ccc(-c2cccc([N+](=O)[O-])c2)o1 (configuration not stated) | -13 | -4% | 2.1% | 7%
Cc1ccccc1CS(=O)(=O)c1ccc(C(=O)N2CCC(C)CC2)cc1[N+](=O)[O-] | -17 | 0% | 0.2% | 8%
C/C(=N/NC(=O)c1ccc2c(c1)OCCO2)c1ccc([N+](=O)[O-])cc1 | -4 | 18% | 0.1% | -10%
Cc1nc2ccc(NC(=O)c3ccc([N+](=O)[O-])cc3)cc2s1 | -3 | 13% | 5.4% | -20%

Screening data deposited in PubChem by National Center for Advancing Translational Sciences (NCATS).
